Compound activity deposited in PubChem by National Center for Advancing Translational Sciences (NCATS).
VACV mCherry inh = qHTS for Stage-Specific Inhibitors of Vaccinia Orthopoxvirus: mCherry Reporter Primary qHTS | Potency, µM (highest dose often 36.5 µM), for the others: at the highest dose activity change, negative = inhibition, usual class: inhibitors | 310,000 tested, 0.63% active | Vaccinia virus mCherry reporter infection, fluorescence; about a quarter of the inactives have no number | AID 720579, 2013; active = well fitted inhibition curve with a large enough effect; inconclusive = small, poorly fitted or top-dose-only effect; inactive = no such curve, though single readings can be large or run the other way; tested in A549 cells; also: nearly all actives have a fitted effect of over 35% in size; inactives centre near -10
VACV Venus inh = qHTS for Stage-Specific Inhibitors of Vaccinia Orthopoxvirus: Venus Reporter Primary qHTS; Vaccinia virus Venus reporter expression, fluorescence; Potency, µM (series often up to 36.5 µM), without a hit: at the highest dose activity change, negative = inhibition, actives largely listed as inhibitors; 330,000 tested, 0.46% active; active means well fitted inhibition curve with a large enough effect; inconclusive means small, poorly fitted or top-dose-only effect; inactive means no such curve, though single readings can be large or run the other way; tested in A549 cells; also: nearly all actives have a fitted effect of over 30% in size; inactives centre near -10
Numbers without * were called inactive; i = inactive; ? = inconclusive; nt = not tested or not shown; & = joins results of further samples; [ ] = another dose, or the depositor's remark. % is scaled to controls: 0 for no effect and ±100 for the full control effect; potency is read from the fitted curve at half-maximal effect.

SMILES	VACV mCherry inh	VACV Venus inh
CCCN1CCN(CCCNC(=O)C2CCN(c3nnc(-n4c(C)ccc4C)s3)CC2)CC1	-2%	-27%
CCCSCCCNC(=O)Cn1c(-c2cccs2)cc2ccccc21	-6%	-4%
CCCn1cc(S(=O)(=O)c2ccccc2)c(=O)c2cc(F)c(N3CCN(C)CC3)cc21	-14%	-12%
O=C(N/C(=C\c1ccc2c(c1)OCO2)C(=O)N1CCOCC1)c1cccs1	i	-15%
COc1ccc2[nH]c(C)c(CCN(Cc3cccs3)C(=S)Nc3ccccc3)c2c1	-22%	?
COC(=O)CN1C(=O)CSc2ccc(S(=O)(=O)Nc3ccc(F)c(Cl)c3)cc21	-8%	-4%
COC(=O)C1=C(COc2ccccc2)NC(=O)NC1c1ccc(Cl)cc1 (stereo not drawn)	4%	-8%
CC(=O)C1=C(C)N=c2s/c(=C/c3ccc4c(c3)OCO4)c(=O)n2C1c1ccc(N(C)C)cc1 (stereo not drawn)	i	6%
O=S(=O)(c1ccccc1C(F)(F)F)N1CCN(c2ncnc3sccc23)CC1	?	?
Cc1ccccc1C(=O)Nc1ccc(C(=O)N/N=C/c2ccc(F)cc2)cc1	-27%	?
CCOC(=O)c1c(N)sc(C(=O)N(CC)CC)c1C	-3%	-7%
Cn1cc(/C=N/NC(=O)c2ccc(C#N)cc2F)c2ccccc21	-19%	-10%
C[C@H](CO)N1C[C@H](C)[C@@H](CN(C)S(=O)(=O)c2cccs2)Oc2c(NC(=O)Nc3ccccc3)cccc2C1=O	3%	-20%
CCCCn1c(N)c(N(CCOC)C(=O)C2CC(=O)N(c3cccc(SC)c3)C2)c(=O)[nH]c1=O (stereo not drawn)	i	0%
O=C(COc1ccc2ccccc2c1)NC1CC(=O)N(c2ccc(F)cc2)C1 (stereo not drawn)	-4%	-1%
Cc1cc(/C=C/c2ccnc3ccccc23)ccc1N(C)C	-4%	-16%
CC(OC(=O)c1cc(=O)[nH]c2ccccc12)c1ccccc1 (stereo not drawn)	-4%	-11%
CC1(C)CC(=O)C2=C(C1)OC(N)=C(C#N)C2c1ccc2c(c1)OCO2 (stereo not drawn)	i	-14%
CC(C)CNC(=O)COc1ncnc2ccccc12	-7%[1.46 µM]	-4%
COc1ccc(CNC(=O)c2cccc(NC3=NC4CS(=O)(=O)CC4S3)c2)cc1 (stereo not drawn)	i	-5%
CC1CCc2c(sc(NC(=O)Cn3nc(C(F)(F)F)c4c3CCCCC4)c2C#N)C1 (stereo not drawn)	-11%	-11%
Cc1ccc2c(c1)c1c(n2CC(O)Cn2ccnc2C)C(=O)CCC1 (stereo not drawn)	nt	-21%
COc1cc(NC(=O)COc2cc(O)c3c(c2)OC(C)(C)CC3=O)cc(OC)c1OC	?	?
Cc1oc(-c2ccccc2NC(=O)c2cccnc2)nc1CNC(=O)C1CCCCCN1C (stereo not drawn)	i	-12%
Cc1n[nH]c(=S)n1/N=C/c1ccc(Br)o1	-10%[1.46 µM]	6%
O=C(CSc1nnc(-c2ccc(F)cc2)o1)Nc1ccccc1N1CCOCC1	nt	-9%
CC(C)c1ccc(OCC(=O)Nc2cccc3c2CCCC3)cc1	-22%	-17%
O=C(O)CCC(=O)Nc1ccccc1Oc1ccccc1	11%	0%
CC(=O)c1c(C(C)=O)c(C)n(-c2cccc([N+](=O)[O-])c2)c1C	i	-26%
Cc1cc(C(=O)N2CCC2(C)C(=O)NCc2cccc3ccccc23)nn1C (stereo not drawn)	33%[activator]	-10%

Compound profiles, as listed above. Order of screens: VACV mCherry inh | VACV Venus inh
`Cc1oc(-c2ccccc2NC(=O)c2cccnc2)nc1CNC(=O)C1CCCCCN1C` (stereo not drawn) across the screens: i | -12%
`O=C(COc1ccc2ccccc2c1)NC1CC(=O)N(c2ccc(F)cc2)C1` (stereo not drawn) across the screens: -4% | -1%
`CC(OC(=O)c1cc(=O)[nH]c2ccccc12)c1ccccc1` (stereo not drawn) across the screens: -4% | -11%

The listing picks up with the 7 entries that preceded the break.
SMILES	VACV mCherry inh	VACV Venus inh
Cc1oc(-c2ccccc2NC(=O)c2cccnc2)nc1CNC(=O)C1CCCCCN1C (stereo not drawn)	i	-12%
Cc1n[nH]c(=S)n1/N=C/c1ccc(Br)o1	-10%[1.46 µM]	6%
O=C(CSc1nnc(-c2ccc(F)cc2)o1)Nc1ccccc1N1CCOCC1	nt	-9%
CC(C)c1ccc(OCC(=O)Nc2cccc3c2CCCC3)cc1	-22%	-17%
O=C(O)CCC(=O)Nc1ccccc1Oc1ccccc1	11%	0%
CC(=O)c1c(C(C)=O)c(C)n(-c2cccc([N+](=O)[O-])c2)c1C	i	-26%
Cc1cc(C(=O)N2CCC2(C)C(=O)NCc2cccc3ccccc23)nn1C (stereo not drawn)	33%[activator]	-10%
COc1ccc(NC(=O)c2ccc(CN3C(=O)CCn4nc(C)cc43)cc2)c(OC)c1	7%	-1%
Cc1ccc(-c2nc(CNC(=O)NC3CCCCC3)c(C)o2)cc1	-13%	4%
Cc1ccccc1CCN(C(=O)c1csnn1)C(C(=O)NC1CCCC1)c1ccncc1 (stereo not drawn)	-14%	-18%
Cc1ccc(OCCn2cc(/C=C(\C#N)C(=O)NCC3CCCO3)c3ccccc32)cc1C (stereo not drawn)	-28%	-21%
COc1ccc(N(C(=O)c2cccnc2)S(=O)(=O)c2ccc(OC)c(OC)c2)cc1	-8%	-4%
Cc1ccc(S(=O)(=O)N2CCN(Cc3csc(C)n3)CC2)cc1	i	2%
NS(=O)(=O)c1ccc(CCNC(=O)COC(=O)Cc2c(F)cccc2Cl)cc1	-12%	-10%
CCC(C)CCN1CCN=C1Nc1ccccc1 (stereo not drawn)	i	-5%
CC(C)[C@H](NC(=O)NC1CCN(Cc2ccccc2)CC1)C(=O)O	i	7%
CC1CCCCN1C(=O)c1cc(-c2ccc(Br)cc2)on1 (stereo not drawn)	-12%	4%
O=C(CN1C(=O)NC2(CCCc3ccccc32)C1=O)NCCc1ccc(F)cc1 (stereo not drawn)	-11%	-1%
O=C(COc1ccccc1F)NNC(=O)c1cccc(-n2cccc2)c1	-12%	-10%
CC(C)Cc1ccc(C(C)/C=C2/CCC(CN3CCCCC3)C2=O)cc1 (stereo not drawn)	-10%	-1%
CC1Cc2[nH]c(=S)[nH]c(=O)c2C(C)O1 (stereo not drawn)	8%	-4%
CCN(Cc1ccccc1)C(=O)c1cc(-c2ccccc2)n[nH]1	-8%	-7%
O=C(CSc1n[nH]c(-c2ccccc2)n1)Nc1ccc(F)cc1F	-1%	-10%
Cn1cc(CN2CC3C[C@@H]4CC2C[C@H](C3)C4)c(-c2ccc3c(c2)OCCO3)n1	-21%	-13%
CCOC(=O)CN(C(=O)CSc1nnc(CNc2ccc(F)cc2)n1CC)c1ccc(F)cc1	-15%	-7%
Cc1ccc(-n2nc(C)c(NC(=O)COC(=O)c3ccccc3NCCO)c2C)cc1	?	-28%
CCN(CC)CCNC(=O)C(=O)NCC1OCCN1S(=O)(=O)c1ccc([N+](=O)[O-])cc1 (stereo not drawn)	-6%	-17%
C[C@H]1Cn2cnc(C(=O)N[C@@H](Cc3c[nH]c4ccccc34)C(=O)OC(C)(C)C)c2C(=O)N1	-22%	-20%
COc1ccc(S(=O)(=O)NC(C)C(=O)N2CCCC2)cc1C (stereo not drawn)	i	1%
COc1ccc(CNC(=O)C2CCC(CNc3c(N4CCOCC4)c(=O)c3=O)CC2)cc1 (stereo not drawn)	-4%&-2%	8%&-1%
CCC1CCCCN1C(=O)COC(=O)c1cc(=O)[nH]c2ccccc12 (stereo not drawn)	-15%	-11%
c1cncc(Nc2nc(-c3cccnc3)cs2)c1	i	-24%
O=S(=O)(c1ccc(NCC2CCCCC2)nc1)N1CCOCC1	-23%	?
COC(=O)c1c(CSc2ccc(Cl)cc2)noc1C(=O)NCc1ccco1	-8%	-12%
Cc1csc2nc(COc3ccc(NC(=O)COc4ccc(F)cc4)cc3)cc(=O)n12	-7%	-12%
CCOc1ccc(-c2nc(SCC(=O)NC3CCCC3)c(-c3ccccc3)[nH]2)cc1OC	-11%	-2%
O=C(CSc1ncnc2c1oc1ccccc12)Nc1ccccc1C(F)(F)F	4%	-12%
COc1ccc(Nc2nnc(-c3ccc(C)c(S(=O)(=O)N4CCN(C)CC4)c3)c3ccccc23)cc1	-18%	?
CC(C)NC(=O)CN1C(=O)COc2ccc(S(=O)(=O)N3CCCCCC3)cc21	-1%	-3%
Cc1ccc(OCc2cc(C(=O)N(C)Cc3cnn(C)c3)no2)cc1C	-12%	-11%
Cc1ccc2cc(CN(CCO)Cc3nnnn3Cc3ccc(F)cc3)c(=O)[nH]c2c1	-7%[1.46 µM]	-25%
Cc1cc[n+](C2CCCCC2)c2ccccc12	-8%	-9%
O=C(/C(=C/O)N=Nc1ccccc1)c1ccc(Cl)cc1	-18%	-10%
Cc1ccccc1CS(=O)(=O)CC1Nc2ccc(C(=O)NCc3ccc(Cl)cc3)cc2NC1=O (stereo not drawn)	?	?
CCO[C@@H]1OC(C(=O)N2CCOCC2)=C[C@H](c2cn(C(C)=O)c3ccccc23)[C@H]1CCCO	-13%	0%
CC(C)(C)[C@H]1C=C(C(=O)N2CCOCC2)O[C@@H](OCc2ccc(CO)cc2)C1	?	-14%
CCc1ccccc1NC(=O)CC(C)S(=O)(=O)c1ccc2c(c1)NC(=O)CO2 (stereo not drawn)	5%	4%
CCOC(=O)N1CCN(C(=O)COC(=O)c2ccccc2NCCO)CC1	-18%	-19%
Cc1ccc(C2/C(=C(\O)c3ccc4c(c3)OCCO4)C(=O)C(=O)N2CC2CCCO2)cc1 (stereo not drawn)	-12%	-24%
CCCN(CCC)C(=O)Cn1c(=O)n(CCC(=O)NCCc2ccccc2)c(=O)c2ccccc21	-12%	-14%
Cc1ccc(CNC(=O)CSc2nc3c(sc4ccccc43)c(=O)n2CCCN2CCCC2)cc1	-17%	-13%
Cc1ccccc1NC(=O)C(Cc1ccccc1)N1Cc2ccccc2C1=O (stereo not drawn)	i	-8%

Filtered by structure: the entries above containing a CF3 group
SMILES	VACV mCherry inh	VACV Venus inh
O=S(=O)(c1ccccc1C(F)(F)F)N1CCN(c2ncnc3sccc23)CC1	?	?
CC1CCc2c(sc(NC(=O)Cn3nc(C(F)(F)F)c4c3CCCCC4)c2C#N)C1 (stereo not drawn)	-11%	-11%
O=C(CSc1ncnc2c1oc1ccccc12)Nc1ccccc1C(F)(F)F	4%	-12%

New compounds follow
SMILES	VACV mCherry inh	VACV Venus inh
CCC1CN(CCNC(=O)c2cccc(N3CCCC3=O)c2)Cc2cc(OC)ccc2O1 (stereo not drawn)	-16%	-1%
O=C(c1ccc(F)cc1)N1CCN(S(=O)(=O)c2ccc3c(c2)OCCO3)CC1	-20%	-27%
COc1cccc(/C=N/n2c(-c3ccco3)nc3ccccc3c2=O)c1	22%	-19%
COc1ccc(C2CC(C(F)(F)F)n3ncc(C(=O)Nc4cccc(O)c4)c3N2)cc1OC (stereo not drawn)	-15%	-21%
CCOP(=S)(OCC)Oc1cc(C)nc(C(C)C)n1	-10%	-9%
Cn1cc(CCCC(=O)NCc2ccc(F)cc2)c2ccccc21	-19%&-3%	-20%&-9%
CN(CC(=O)Nc1cccnc1)S(=O)(=O)c1cc(Cl)ccc1Cl	-8%	-12%
Cc1cccc(NC(=O)CSc2nnc3c4ccccc4n(C)c3n2)c1	-2%	-3%
CCCC1(c2ccccc2)NC(=O)N(CC(=O)Nc2sc(-c3ccccc3)cc2C(=O)OCC)C1=O (stereo not drawn)	i	-1%
COc1ccc(C(=O)Nc2ccc(OCc3cc(=O)n4ccsc4n3)cc2)cc1OC	3%	-4%
Cc1ccc2nc3c(c(Nc4ccc(O)cc4)c2c1)CCC3	?	-28%
O=[n+]1cc(-c2ccc(Cl)cc2)n([O-])c2c1CCC2	i	-5%
N#Cc1c(/N=C/c2ccc(O)cc2O)sc2c1C1CCN2CC1	-14%	-9%
Cc1ccc(-n2ncc(C(=O)NCCc3ccsc3)c2C2CCN(C(=O)OC(C)(C)C)CC2)c(C)c1	-16%	-6%
Cc1cc(Br)ccc1NC(=O)CN(C)C(=O)CSCc1ccccc1	-11%	-25%
CC(=O)N(Cc1cccnc1)Cc1cc2ccc(C)cc2[nH]c1=O	-7%	?
CCN(CC)S(=O)(=O)c1cccc(C(=O)Oc2cccc(NC(=O)c3cccs3)c2)c1	-10%	-3%
Cc1cc(C)c(NC(=O)Cn2nnc(-c3ccccc3)n2)c(C)c1	9%	10%
CCc1ccccc1NC(=O)Cn1cc(C(=O)c2ccncc2)c(=O)c2cc(C)ccc21	-6%[7.34 µM]	-10%[7.34 µM]
O=S(=O)(NN1CCOCC1)c1ccc(Br)s1	i	-18%
COc1ccc(Oc2ccc(N/C=C3/CCCC3=O)cc2)cc1	-30%	-26%
Cc1cccc(-n2nnnc2SCC(=O)N(CC(C)C)c2c(N)n(CC(C)C)c(=O)[nH]c2=O)c1	-3%	2%
Cc1ccc(CSc2nn3c(=O)c(C)nnc3s2)cc1	i	-7%
COc1ccc(-n2c(SCC(=O)Nc3cc(C)on3)nc3ccccc3c2=O)cc1Cl	3%	8%
NC(=O)NC(CC(=O)NCCc1ccccn1)c1ccccc1Cl (stereo not drawn)	i	-6%
COC(=O)c1c(NC(=O)c2ccc(Cl)c(Cl)c2)sc2c1CCCC2	5%	6%
Cc1ccc(CSc2nc(-c3ccc(C(C)(C)C)cc3)nc3cc(=O)[nH]n23)cc1	-20%	-14%
COc1ccc(C(C(=O)NC2CCCC2)N(Cc2cccnc2)C(=O)Cc2cccs2)c(OC)c1 (stereo not drawn)	10%	-3%
